# Assay outcomes deposited in PubChem by Sanford-Burnham Center for Chemical Genomics.
# HKDC1 inh: HKDC1 (human) hexokinase inhibition | Q2TB90 | 340,000 tested, 0.16% active | recombinant HKDC1, G6PDH/diaphorase resazurin coupled fluorescence | inhibition, % at 20 µM;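 active means inhibition above about 35% when tested at 20 µM, limit read from the data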;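 further: plate controls were DMSO wells with enzyme for no effect and DMSO wells lacking enzyme for full effect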
#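 Assay system: in-house recombinant HK5 (HKDC1) enzyme. Input: HKDC1 at 5 µg/mL. Medium: Tris pH 8.0 buffer with MgCl2, Tween-20, BSA, BME. Dosing: single 20 µM dose. Schedule: 90 min reaction incubation at room temperature, dark. Signal: resazurin-to-resorufin fluorescence via G6PDH and diaphorase coupling, 525/613 nm. Controls: DMSO-enzyme wells negative, buffer-substituted wells positive.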
# hIAP activ: increases human intestinal alkaline phosphatase activity; P09923; purified human IAP, CDP-Star luminescence, 30 min; active compounds read high; 1 = vehicle-only enzyme, 0 = enzyme-free background; activation factor at 10 µM; 330,000 tested, 0.16% active;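 active means activation factor of the enzyme at least 2-fold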; further: the source names both 10 and 20 µM as test concentration; values of inactives mirror those of a sister screen read the other way
# Target sequence (P09923 whole entry, looked up): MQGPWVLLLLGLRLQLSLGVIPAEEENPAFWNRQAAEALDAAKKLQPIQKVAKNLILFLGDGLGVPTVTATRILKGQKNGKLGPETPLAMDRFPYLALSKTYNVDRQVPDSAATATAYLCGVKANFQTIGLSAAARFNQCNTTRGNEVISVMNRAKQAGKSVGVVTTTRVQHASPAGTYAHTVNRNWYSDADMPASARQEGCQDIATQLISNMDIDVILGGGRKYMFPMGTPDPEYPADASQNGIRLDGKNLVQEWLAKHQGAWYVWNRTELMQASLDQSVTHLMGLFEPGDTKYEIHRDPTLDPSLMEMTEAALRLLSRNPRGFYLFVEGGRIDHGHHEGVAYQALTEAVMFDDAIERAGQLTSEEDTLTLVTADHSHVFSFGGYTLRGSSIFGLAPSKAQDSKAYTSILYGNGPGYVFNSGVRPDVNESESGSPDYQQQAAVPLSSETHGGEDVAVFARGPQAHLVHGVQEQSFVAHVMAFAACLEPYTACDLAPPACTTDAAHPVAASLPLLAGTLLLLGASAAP
# hIAP inh: blocks human intestinal alkaline phosphatase; 330,000 tested, 0.12% active; AID 2544; purified IAP, CDP-Star luminescence, 30 min; inhibition, % at 10 µM;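 active means inhibition reaching a set limit with compound at 10 µM in the primary screen, cut at about 35% in these data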;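 further: plate controls were DMSO wells with enzyme for no effect and no-enzyme buffer wells for full effect; values of inactives mirror those of a sister screen read the other way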
# APOBEC3A inh: blocks human APOBEC3A ssDNA deamination. 330,000 tested, 0.41% active. inhibition, % at 20 µM. recombinant A3A, FAM/TAMRA ssDNA deamination fluorescence. P31941;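 active means at least 40% inhibition at 20 µM here, with at most 30% in a related deaminase screen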;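 further: plate controls were A3A with DMSO for no effect and wells lacking A3A enzyme for full effect; some results filed as inactive read as strong as hits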
# An asterisk follows results filed as active; · = not tested or not shown; & = joins results of further samples. This is a subset; the hit share may differ from the screen's.
No.	SMILES	HKDC1 inh	hIAP activ
1	CC(=O)Oc1ccc(-c2cc3ccc(OC(C)=O)cc3oc2=O)cc1	-5	1.1
2	O=C1NC[C@@H](c2ccccc2)OC(=O)[C@@H](Cc2ccc(F)cc2)CC/C=C/C[C@H]1CC(=O)N(CCO)Cc1ccccc1	6	1.1
3	O=C1NC[C@H](c2ccccc2)OC(=O)[C@H](Cc2ccc(F)cc2)CC/C=C/C[C@@H]1CC(=O)N(CCO)Cc1ccccc1	4	1.1
4	O=C1NC[C@H](c2ccccc2)OC(=O)[C@@H](Cc2ccc(F)cc2)CC/C=C/C[C@H]1CC(=O)N(CCO)Cc1ccccc1	1	1
5	CCCOc1ccc2ccccc2c1/C=C1\SC(=O)NC1=O	5	1.1
6	O=C(CSc1ncnc2ccccc12)NCc1ccc2c(c1)OCO2	1	0.99
7	CCOC(=O)C1=C(C)NC(C)=C(C(=O)OC)C1c1cccc(Cl)c1Cl (stereo unspecified)	1	0.84
8	Cc1sc2ncnc(SCC(=O)N3CCN(C(=O)c4ccco4)CC3)c2c1C	-1	1.1
9	COc1cc2c(cc1OC)C1C(=O)c3cc(OS(C)(=O)=O)c(OC)cc3C1N(C)C2=O (stereo unspecified)	2	·
10	CCCC(=O)Nc1ccc(Cl)c(-c2nc3ncccc3o2)c1	2	1.1

No.	hIAP inh	APOBEC3A inh
1	-11	0
2	-15	3
3	-12	0
4	-4	-1
5	-12	-8
6	1	0
7	16	-5
8	-5	-6
9	·	·
10	-9	4

# Reprinted at random: three records from the list.
No.	SMILES	HKDC1 inh	hIAP activ
2	O=C1NC[C@@H](c2ccccc2)OC(=O)[C@@H](Cc2ccc(F)cc2)CC/C=C/C[C@H]1CC(=O)N(CCO)Cc1ccccc1	6	1.1
3	O=C1NC[C@H](c2ccccc2)OC(=O)[C@H](Cc2ccc(F)cc2)CC/C=C/C[C@@H]1CC(=O)N(CCO)Cc1ccccc1	4	1.1
7	CCOC(=O)C1=C(C)NC(C)=C(C(=O)OC)C1c1cccc(Cl)c1Cl (stereo unspecified)	1	0.84

No.	hIAP inh	APOBEC3A inh
2	-15	3
3	-12	0
7	16	-5

# Complete entries as entered above:
# CCOC(=O)C1=C(C)NC(C)=C(C(=O)OC)C1c1cccc(Cl)c1Cl (stereo unspecified) in the list: HKDC1 inh: 1; hIAP activ: 0.84; hIAP inh: 16; APOBEC3A inh: -5
# CCCOc1ccc2ccccc2c1/C=C1\SC(=O)NC1=O in the list: HKDC1 inh: 5; hIAP activ: 1.1; hIAP inh: -12; APOBEC3A inh: -8
# O=C1NC[C@H](c2ccccc2)OC(=O)[C@H](Cc2ccc(F)cc2)CC/C=C/C[C@@H]1CC(=O)N(CCO)Cc1ccccc1 in the list: HKDC1 inh: 4; hIAP activ: 1.1; hIAP inh: -12; APOBEC3A inh: 0

# Going on with the list.
No.	SMILES	HKDC1 inh	hIAP activ
11	O=C(O)Cn1nc(C(F)(F)F)c2c1CCCCC2	-3	1.1
12	Cc1ccc2c(CC(=O)N3CCN(S(=O)(=O)c4ccc5c(c4)OCCO5)CC3)coc2c1	5	0.83
13	Cc1nnc(SCC2=C(C(=O)O)N3C(=O)[C@@H](NC(=O)Cn4cnnn4)[C@H]3SC2)s1	-9&-7	1.1&0.86
14	Cc1nc(=O)c(-c2ccccc2)c(C)n1-c1ccc(O)c(C(=O)O)c1	4	0.91
15	CCOC(=O)C1=C(COCCN)NC(C)=C(C(=O)OC)C1c1ccccc1Cl (stereo unspecified)	0&-4&0	0.92&1.2
16	COc1ccc(/C(N)=N/OC(=O)CSc2ccccc2)cc1	1	1
17	O=C1NC[C@@H](c2ccccc2)OC(=O)[C@@H](Cc2ccc(F)cc2)CC/C=C/C[C@@H]1CC(=O)N(CCO)Cc1ccccc1	-1	1
18	O=C1NC[C@@H](c2ccccc2)OC(=O)[C@H](Cc2ccc(F)cc2)CC/C=C/C[C@H]1CC(=O)N(CCO)Cc1ccccc1	4	1.1
19	O=C(COc1ccc(Cl)cc1Cl)Nc1noc2ccccc12	-8	1.1

No.	hIAP inh	APOBEC3A inh
11	-10	-7
12	17	-1
13	-5&14	4&0
14	9	-3
15	8&-7	-3&-5&1
16	-4	0
17	-1	-1
18	-7	2
19	-13	-2
